Mtb growth: Mycobacterium tuberculosis H37Rv growth inhibition, cell based, confirmatory dose response (AID 1949). 100,000 tested, 1.6% active. inhibition, % at 10 µg/mL; hits with a dose series show IC50 in µg/mL. most inactive calls were filed without a number and no value below 0 was filed;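 active means confirmed in a dose series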;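 further: bacteria grown 7 days with compound before Alamar blue readout; 0% = untreated bacteria and 100% = reference antibiotic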
* = called active by the depositor; i = inactive.

No.	SMILES	Mtb growth
1	Cc1ccc2nc(SCC(=O)O)nc(C)c2c1	i
2	COc1cccc(NC(=O)C(C)n2cnc3ccccc3c2=O)c1 (stereo not drawn)	2%
3	CCCN(CC1CC1)C(=S)Nc1cccc(OC)c1	i
4	Cc1ccc(C2c3c(oc4ccc(Br)cc4c3=O)C(=O)N2Cc2ccccc2Cl)cc1 (stereo not drawn)	2%
5	O=C(CSc1nnc(-c2cccs2)n1-c1ccccc1)N1CCc2ccccc2C1	i
6	CCc1cc2c3c(c(=O)oc2cc1OCc1cc(C(=O)O)oc1C)CCCC3	i
7	CCc1nn(-c2ccccc2)c(=O)c2ccccc12	i
8	COc1ccc(-c2nc(SCC(=O)Nc3cccc(C(F)(F)F)c3)n[nH]2)cc1	0%
9	Cc1ccc(CN(c2ccc(C(=O)Nc3cccnc3)cc2)S(C)(=O)=O)cc1	i
10	CC(C)(NO)C(=O)c1ccc(Cl)cc1	i
11	Cc1ccccc1CN1c2cccc3cccc(c23)S1(=O)=O	i
12	CCc1ccc(OCc2nc(-c3cccc(C)c3)no2)c(Br)c1	i
13	Fc1ccccc1-c1nc(-c2ccccn2)no1	i
14	CCc1ccc(CN/C=C/C(=O)c2ccc(Br)cc2)cc1	i
15	COc1ccc(S(=O)(=O)Nc2ccc(O)c(Sc3ncn[nH]3)c2)cc1	i
16	C=CCOc1cccc(C2c3c(oc4ccccc4c3=O)C(=O)N2c2nc(C)c(C)s2)c1 (stereo not drawn)	1%
17	CN(C)C(=O)Oc1c(I)cc(Cl)c2cccnc12	i
18	COc1ccccc1CNCc1ccc(OC)c(OC)c1OC	i
19	COc1ccc(-c2nn(C)c(=O)c3ccccc23)cc1CNC(=O)c1cccs1	i
20	O=C(Nc1ccc(Cl)c(F)c1)C1C2CCC3C(CCC21)C3(Cl)Cl (stereo not drawn)	i
21	COc1ccc(CCNc2nc3ccccc3nc2NS(=O)(=O)c2ccccc2)cc1OC	0%
22	CCn1c(SCC(=O)Nc2cccc(OC)c2)nnc1-c1ccncc1	i
23	COc1ccc(C(=O)Oc2ccc(C(=O)Nc3ccccc3)cc2)cc1	i
24	CCNC(=S)NNC(=O)CC(C)C	i
25	CSc1c(F)cnc(=O)n1CC(=O)N1c2ccccc2SC2C=CC=CC21 (stereo not drawn)	i
26	NC(=O)c1sc2nc(-c3ccc(F)cc3)cc(-c3ccccc3)c2c1N	i
27	O=S(=O)(NCCC1=CCCCC1)c1ccc(Cl)s1	4%
28	CCc1cccc(C)c1NC(=O)CSc1nnc(Cc2ccccc2)n1-c1ccc(Cl)cc1	i
29	Cc1cc(C)c(OCC(=O)Nc2cc(O)ccc2C(=O)O)cc1C	i
30	CC(=O)Nc1ccccc1SCC(=O)Nc1ccc(C)cc1	i
31	CCc1cc2c(=O)c(Oc3ccc(Cl)cc3)c(C)oc2cc1OCC(N)=O	i
32	CC(=O)Oc1ccccc1C(=O)NCc1ccc(C)cc1	i
33	COC(=O)c1ccccc1NC(=O)COc1c(C)cc(Br)cc1C	i
34	O=C(Nc1ccccc1C(=O)Nc1ccc2ccccc2c1)c1ccco1	i
35	CC(C(=O)Nc1ncccn1)(c1ccccc1)c1ccccc1	0%
36	COc1cccc(C(C)NC(=S)NCc2ccc(Cl)cc2)c1 (stereo not drawn)	4%
37	CCc1ccc(NC(=O)COc2cc(Cl)c(Cl)cc2Cl)cc1	i
38	O=[N+]([O-])c1c(Nc2ccc(F)cc2)[nH]c2ccc(F)cc12	1%
39	COc1ccc(CCNC(=O)c2cc3c(=O)n4ccccc4nc3s2)cc1OC	i
40	O=C(O)CN1C(=O)/C(=c2\sc3nc4ccccc4n3c2=O)c2ccccc21	i
41	CCOc1cc(S(=O)(=O)NCc2cccs2)ccc1Cl	7%
42	COc1ccc(-c2nn(C)c(=O)c3ccccc23)cc1NC(=O)Cn1nc(C)c2ccccc2c1=O	i
43	O=C(Nc1ccc2c(c1)OCCO2)c1csc2ccccc12	i
44	Cc1ccc(C(=O)N/C(=C\c2cccc(Oc3ccccc3)c2)C(=O)NCc2ccncc2)cc1	3%
45	COc1ccc(NC(=O)C2CCN(S(=O)(=O)c3ccc(F)cc3)CC2)c(OC)c1	i
46	Nc1nc(NC(=O)c2ccco2)nn1-c1ccccc1	i
47	O=S(=O)(Nc1ccc(F)c(Cl)c1)c1ccccc1Cl	4%
48	COc1cc(NC(=S)NCCN2CCOCC2)c(OC)cc1Cl	i
49	CCN(CC)Cc1ccc(NC(=O)c2cc(OC)c(OC)c(OC)c2)cc1	i
50	S=C(NCc1ccc(Cl)cc1)Nc1ccncc1	i
51	Cc1cc(NC(=O)c2cc(-c3ccccc3)nc3ccccc23)no1	i
52	CC(C(=O)N1CCCCC1)(c1ccccc1)c1ccccc1	3%
53	CCCNC(=O)c1cc(Cl)cc(Cl)c1NC(=O)c1ccc(Cl)cc1Cl	i
54	O=C(c1cc2ncc(Br)cn2n1)N1CCN(C(=O)c2ccco2)CC1	i
55	COc1ccc(-c2nc3cc(NC(=O)CC(C)C)ccc3o2)cc1	i
56	COc1ccc(OC)c(NC(=O)C2CCN(C(=O)c3ccc(C(C)(C)C)cc3)CC2)c1	i

More structures follow:
No.	SMILES	Mtb growth
57	O=C1CCCC2=C1C(c1ccccc1OCc1ccc(C(=O)O)cc1)C1=C(CCCC1=O)N2	i
58	O=C(Nc1c(F)cc(F)cc1Br)C1CCCO1 (stereo not drawn)	i
59	N#CC1(c2ccccc2)CCN(C2CC(=O)N(c3ccc(Cl)cc3)C2=O)CC1 (stereo not drawn)	i
60	C=CCc1ccc(OCCn2cnc3ccccc3c2=O)c(OC)c1	5%
61	Cc1ccc(C(=O)CSc2n[nH]c(-c3ccncc3)n2)c(C)c1	i
62	CN1CCC(N(C)c2nc(-c3ccccc3)nc3ccccc23)CC1	4%
63	CCCCC(=O)Nc1cccc(NC(=O)COc2ccc(Cl)cc2C)c1	i
64	CC1=C(C(=O)OCC2CCCO2)C(c2ccc(C)o2)C2=C(CC(c3ccc(F)cc3)CC2=O)N1 (stereo not drawn)	i

Quoted at random: four compounds from above, in no set order.
No.	SMILES	Mtb growth
64	CC1=C(C(=O)OCC2CCCO2)C(c2ccc(C)o2)C2=C(CC(c3ccc(F)cc3)CC2=O)N1 (stereo not drawn)	i
61	Cc1ccc(C(=O)CSc2n[nH]c(-c3ccncc3)n2)c(C)c1	i
59	N#CC1(c2ccccc2)CCN(C2CC(=O)N(c3ccc(Cl)cc3)C2=O)CC1 (stereo not drawn)	i
57	O=C1CCCC2=C1C(c1ccccc1OCc1ccc(C(=O)O)cc1)C1=C(CCCC1=O)N2	i

Next entries:
No.	SMILES	Mtb growth
65	Cc1ccc(C)c(N(CC(=O)Nc2ccc(Br)c(Cl)c2)S(C)(=O)=O)c1	9%
66	CSc1nc(NC(C)(C)C)nc(N2CCOCC2)n1	3%
67	Cc1ccc([N+](=O)[O-])cc1S(=O)(=O)Nc1cc(Br)c(O)c2ccccc12	11µg/mL*
68	Cc1ccsc1CNCc1cccnc1	i
69	Fc1ccccc1N1CCN(C(=S)Nc2ccccc2C(F)(F)F)CC1	2%
70	COc1ccc2c(Cl)c(C(=O)Nc3ccc(S(=O)(=O)N4CCc5ccccc54)cc3)sc2c1	i
71	CSc1ccc(S(=O)(=O)N2CCOCC2)cc1	i
72	CS(=O)(=O)Nc1cccc(C2=NN(C(=O)c3ccc(F)cc3)C(c3ccco3)C2)c1 (stereo not drawn)	7%
73	O=C(NCc1ccccc1)c1ccccc1NC(=O)C1CC1	i
74	COc1ccc(NC(=S)NCc2ccc(C(=O)O)cc2)cc1OC	i
75	O=C1CC(c2cccc3ccccc23)Sc2nc3ccccc3n21 (stereo not drawn)	i
76	Cn1c(=O)c2c(nc(NCc3cccnc3)n2Cc2cccc(C(F)(F)F)c2)n(C)c1=O	i
77	COC(=O)Cn1cnc2sc(C)c(C)c2c1=O	i
78	O=C(c1sc2cc(Cl)ccc2c1Cl)N1CCOCC1	i
79	O=C(Nc1cccc(NC(=O)c2cnccn2)c1)c1cnccn1	i
80	Cc1ccccc1CN(c1ccc(C(=O)Nc2cccc3ccccc23)cc1)S(C)(=O)=O	i
81	Cc1ccc(S(=O)(=O)N(CC(=O)Nc2ccccc2C(F)(F)F)c2cccc(C)c2C)cc1	6%
82	Cc1cccc(NC(=O)CCC2CCCCC2)n1	i
83	COc1ccc(Cl)cc1NC(=O)C(C(F)(F)F)C(F)(F)F	1%
84	CCC(=O)N(CCC(Cc1ccccc1)c1ccc(OC)cc1)Cc1ccco1 (stereo not drawn)	4%
85	COc1cc(C(=O)N2CCC(C(=O)Nc3cc(Cl)ccc3Cl)CC2)cc(OC)c1OC	1%
86	CCOC(=O)N1CCN(C(=O)C2CC(=O)N(c3ccccc3)C2)CC1 (stereo not drawn)	i
87	Cc1ccc(O)c(NC(=S)NC(=O)COc2ccccc2)c1	1%
88	CC(=O)Oc1ccc2c(=O)c(-c3ccc(Br)cc3)c(C)oc2c1	i
89	CCCS(=O)(=O)c1ccc(COc2ccc(Br)cc2)cc1	i
90	CN(c1ccccc1C(=O)NCCC1=CCCCC1)S(=O)(=O)c1ccccc1	i
91	CN(CC(=O)NC1CC1)S(=O)(=O)c1cc(Cl)ccc1Cl	i
92	O=C(Cn1nc(C(F)(F)F)c2c1CCC2)Nc1cccc2ccccc12	i
93	Cc1c(C(=O)Nc2ccccc2)sc2ncn(CC(=O)NCCc3ccccc3)c(=O)c12	i
94	CC(=O)Nc1cc(C(=O)OCC(=O)c2ccc(-c3ccccc3)cc2)ccc1C	i
95	COc1ccc(C(C)C)cc1S(=O)(=O)NCc1ccccc1	4%
96	Cc1ccc(NC(=O)CN(Cc2ccccc2)S(=O)(=O)c2ccc3c(c2)OCCO3)cc1	i

Sorted by SMILES length (rising): part of the list above
No.	SMILES	Mtb growth
46	Nc1nc(NC(=O)c2ccco2)nn1-c1ccccc1	i
95	COc1ccc(C(C)C)cc1S(=O)(=O)NCc1ccccc1	4%
91	CN(CC(=O)NC1CC1)S(=O)(=O)c1cc(Cl)ccc1Cl	i
34	O=C(Nc1ccccc1C(=O)Nc1ccc2ccccc2c1)c1ccco1	i
26	NC(=O)c1sc2nc(-c3ccc(F)cc3)cc(-c3ccccc3)c2c1N	i
5	O=C(CSc1nnc(-c2cccs2)n1-c1ccccc1)N1CCc2ccccc2C1	i
76	Cn1c(=O)c2c(nc(NCc3cccnc3)n2Cc2cccc(C(F)(F)F)c2)n(C)c1=O	i

(list continues)
No.	SMILES	Mtb growth
97	COc1ccc(Cl)cc1S(=O)(=O)N1CCN(c2cccc(C(F)(F)F)c2)CC1	11%
98	CCCCNS(=O)(=O)c1ccc(NC(=O)Cc2ccc(Br)cc2)cc1	i
99	C=CCn1c(SCC(=O)NCc2ccco2)nc2sc(C)c(C)c2c1=O	i
100	COc1ccc(OCCCC(=O)Nc2ccccc2Cl)cc1	i
101	CCCC(=O)n1nc(-c2ccccc2)nc1NCc1ccco1	i
102	O=Cc1ccccc1Oc1nc(N2CCOCC2)nc(N2CCOCC2)n1	i
103	O=C1CCCc2oc3c(Cl)cc(NS(=O)(=O)c4cccc5ccccc45)cc3c21	i
104	COc1ccc(S(=O)(=O)Nc2nc3ccc(Cl)cc3s2)cc1	i
105	CNc1c(C(=O)c2ccc(F)cc2)sc(N)c1C#N	i
106	Cc1ccc(C(=O)N(C)CCC#N)cc1C	i
107	CCc1nnc(NC(=O)c2cccc(S(=O)(=O)N3CCCCC3)c2)s1	i
108	CS(=O)(=O)N(CC(=O)N1CCOCC1)c1ccc2c3c(cccc13)CC2	i
109	Cc1ccc(N(CC(=O)N(C)C)S(C)(=O)=O)cc1C	i
110	CSc1nnc2c(n1)OC(C)=Nc1ccccc1-2	i
111	COc1ccc(CCNC(=O)c2ccc(N(Cc3ccc(C)cc3)S(C)(=O)=O)cc2)cc1OC	i
112	Cc1cc(-c2ccccc2)nc(SCC(=O)NCc2ccccc2)n1	i
113	COC(=O)c1ccc(NC(=O)CNC(=O)C2CCCCC2)cc1	3%
114	O=C1NC(c2ccccc2)(C(F)(F)F)C(=O)N1Cc1cccnc1 (stereo not drawn)	i
115	O=C(NCCCN1CCOCC1)c1ccc(Cl)s1	i
116	O=C(c1c(F)c(F)c(F)c(F)c1F)N(CCO)Cc1ccccc1	i
117	C=CCOc1cccc(CNCc2ccncc2)c1	i
118	COc1ccc(NC(=O)COc2cccc(C)c2C)c([N+](=O)[O-])c1	i
119	Cc1ccc(S(=O)(=O)/N=C(/Nc2nc(C)cc(C)n2)N2CCOCC2)cc1	i
120	Cc1cc(OCc2c(F)cccc2F)c2c(C)cc(=O)oc2c1	4%
121	Cc1ccc(CN(CC(=O)NCc2cccnc2)S(=O)(=O)c2ccc(Cl)cc2)cc1	2%
122	CCN(CC)C(=O)CCc1ccc(S(=O)(=O)NCC(C)C)cc1	i
123	CCCCN1CCC(O)(c2ccccc2)C(C(=O)c2ccccc2)C1 (stereo not drawn)	11µg/mL*
124	COc1ccc(N2CC(C(=O)NCCc3ccc(OC)c(OC)c3)CC2=O)cc1 (stereo not drawn)	i
125	CC(C)OC(=O)C(N)Cc1ccccc1 (stereo not drawn)	i
126	O=C(CSc1nc(-c2ccccc2)cc(=O)[nH]1)NCc1ccc2c(c1)OCO2	i
127	COc1cc(C2NC(=S)NC(c3ccccc3)=C2C(=O)c2ccccc2)c(Cl)cc1O (stereo not drawn)	i
128	Cc1ccccc1C(=O)N1CCN(c2ccc(NC(=O)c3cccc(F)c3)cc2)CC1	3%
129	Cc1cc(Br)ccc1OCC(=O)Nc1cccc(Cl)c1C	i
130	O=C(CSc1ccccn1)Nc1nnc(SCc2cccc(Br)c2)s1	i
131	Cc1ccc(C(=O)Nc2nc(-c3ccccc3)c(-c3ccccc3)o2)cc1	<0.1µg/mL*
132	CCCN(CCC)S(=O)(=O)c1ccc(NC(=O)c2cc(C(=O)OC)cc([N+](=O)[O-])c2)cc1	i
133	CN(C)S(=O)(=O)c1ccc2nc(NC(=O)COc3ccccc3)sc2c1	i
134	S=C(NCC1CCCCC1)Nc1cccnc1	i
135	Cc1ccc(C(=O)NC(=S)Nc2ccc(I)cc2F)c(Cl)c1	i
136	Cc1ccc(NC(=O)c2cccc(I)c2)cc1[N+](=O)[O-]	i
137	COC(=O)CSc1[nH]c2ccc(F)cc2c1[N+](=O)[O-]	23µg/mL*
138	CCOC(=O)C1CCN(C(=S)Nc2ccc(F)c(Cl)c2)CC1	i

Some of the compounds tested; the hit share may differ from the screen's.
